High-throughput results: PubChem BioAssay, Broad Institute
Ecoli rRNA inh: reduced GFP signal of wild-type E. coli, primary screen, bacterial rRNA inhibitor project, GFP/RFP fluorescence, OD600, single point. E. coli WT GFP vs humanized-ribosome RFP mutants, 24 h; hits give low values; DMSO median 0, no signal -100. GFP signal change (wild-type ribosome), % (no concentration beside the values). actives 1.6% (n = 350,000). AID 720706, 2013;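 active means significant combined selectivity score with lowered wild-type GFP, culture density cut under 30%, mutant RFP and density less affected; inactive means any of these conditions unmet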; further: one replicate is shown; some compounds called inactive have numbers as strong as hits
AF4-AF9 inh: inhibitors of AF4 peptide binding to AF9, primary screen, biochemical, AlphaScreen, biotin-AF4 peptide, FLAG-AF9, single point. AID 651704, 2012. inhibition, % at 10 µM. actives 0.47% (n = 350,000). Protein AF-9 (Homo sapiens), P42568;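 active means every replicate reaching a set inhibition limit, whatever the replicate mean, cut at about 25% in these data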;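 further: 0% = plate neutral control median and 100% = total signal loss; the record names both 10 and 1 µM as test concentration; the first replicate is given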
Target sequence (P42568 whole entry, looked up): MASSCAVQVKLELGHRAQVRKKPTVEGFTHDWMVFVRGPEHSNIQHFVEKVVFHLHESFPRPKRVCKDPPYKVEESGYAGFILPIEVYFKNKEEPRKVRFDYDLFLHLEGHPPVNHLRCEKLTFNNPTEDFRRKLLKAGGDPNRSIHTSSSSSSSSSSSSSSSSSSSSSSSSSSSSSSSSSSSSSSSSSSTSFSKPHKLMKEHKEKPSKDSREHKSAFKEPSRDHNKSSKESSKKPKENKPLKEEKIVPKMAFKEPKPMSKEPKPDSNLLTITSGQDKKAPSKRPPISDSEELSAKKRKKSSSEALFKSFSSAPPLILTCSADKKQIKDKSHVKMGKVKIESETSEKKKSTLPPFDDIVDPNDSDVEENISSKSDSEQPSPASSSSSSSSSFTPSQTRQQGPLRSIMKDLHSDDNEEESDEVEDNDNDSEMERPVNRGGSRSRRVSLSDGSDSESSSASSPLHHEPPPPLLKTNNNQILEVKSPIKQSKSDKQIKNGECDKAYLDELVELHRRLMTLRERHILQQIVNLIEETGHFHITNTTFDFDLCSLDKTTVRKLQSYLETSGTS
Ecoli rRNA inh OD600: further read-out of Ecoli rRNA inh, marked with its call; OD600 change, %; measured here: OD600 growth;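 optical density of the mix in the first replicate; 0 = DMSO median and -100 = no signal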
Ecoli rRNA inh RFP: further read-out of Ecoli rRNA inh, marked with its call; RFP signal change, %; measured here: RFP humanized mutant strains;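 first replicate; 0 = DMSO median and -100 = no signal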
* = called active by the depositor. Some of the compounds tested; count on the stated rates, not on these rows.

The opening two records, ahead of the listing:
SMILES	Ecoli rRNA inh	Ecoli rRNA inh OD600	Ecoli rRNA inh RFP	AF4-AF9 inh
O=C(CC1CC1)Nc1ccc2c(c1)[C@@H]1C[C@@H](CC(=O)NC3CCCC3)O[C@H](CO)[C@@H]1O2	1.5	4.7	-1.2	-0.3
Cc1ccc(S(=O)(=O)NCc2ccccc2NS(=O)(=O)c2ccc(C)cc2)cc1	-35.0	-59.1	6.0	0.5

The whole of this part, from the start:
SMILES	Ecoli rRNA inh	Ecoli rRNA inh OD600	Ecoli rRNA inh RFP	AF4-AF9 inh
O=C(CC1CC1)Nc1ccc2c(c1)[C@@H]1C[C@@H](CC(=O)NC3CCCC3)O[C@H](CO)[C@@H]1O2	1.5	4.7	-1.2	-0.3
Cc1ccc(S(=O)(=O)NCc2ccccc2NS(=O)(=O)c2ccc(C)cc2)cc1	-35.0	-59.1	6.0	0.5
COc1ccc(S(=O)(=O)Nc2ccc3c(c2)C(=O)N([C@H](C)CO)C[C@@H](C)[C@H](CN(C)C)OCCCC[C@@H](C)O3)cc1	3.6	4.8	0.1	-0.6
COc1ccc(S(=O)(=O)N(C)C[C@@H]2Oc3ccc(NC(=O)Nc4c(C)noc4C)cc3C(=O)N([C@H](C)CO)C[C@H]2C)cc1	-0.5	1.8	-0.7	0.3
COc1ccc(S(=O)(=O)N(C)C[C@H]2OCCCC[C@@H](C)Oc3ccc(NS(=O)(=O)c4ccc(F)cc4)cc3C(=O)N([C@@H](C)CO)C[C@H]2C)cc1	-0.3	-4.1	-0.6	-1.2
C[C@H]1CCCCO[C@@H](CN(C)C(=O)Nc2ccc(C(F)(F)F)cc2)[C@@H](C)CN([C@@H](C)CO)C(=O)c2cc(NS(=O)(=O)c3ccccc3)ccc2O1	3.6	0.7	1.7	-7.9
CCCNC(=O)[C@H]1[C@H](CO)[C@H]2Cn3c(ccc(-c4ccc(C(=O)N(C)C)cc4)c3=O)[C@H]2N1CCC	0.2	-4.6	1.5	-0.8
Cc1ccc([C@H]2C[C@H](n3cc(COC(=O)c4ccccc4)nn3)[C@@H](O)CN2C(=O)C2CCCCC2)cc1	0.9	-3.0	-0.8	-2.3
O=c1[nH]c(=S)[nH]c2c1C(C1CCCCC1)OC(C1CCCCC1)C2 (configuration not stated)	5.6	4.6	3.0	1.6
O=C(C[C@@H]1C[C@H]2c3cc(NC(=O)C4CCOCC4)ccc3O[C@H]2[C@H](CO)O1)NCc1ccc(Oc2ccccc2)cc1	-4.2	-26.2	0.2	2.1
O=C(Cc1ccccc1)N[C@@H]1C=C[C@H](CC(=O)N2CCCCC2)O[C@H]1CO	7.7	4.6	2.4	-16.3
Cc1cccc(S(=O)(=O)N[C@H]2CC[C@H](CCNC(=O)c3cnccn3)O[C@@H]2CO)c1	-5.1	-1.4	-5.9	-1.2
C[C@H]1CN([C@@H](C)CO)C(=O)c2cccc(NC(=O)C3CCOCC3)c2O[C@H]1CN(C)Cc1ccc(C(=O)Nc2ccccc2N)cc1	-1.7	1.6	-3.6	2.1
CO[C@@H](CN(C)S(=O)(=O)c1ccc(C)cc1)[C@H](C)CN([C@H](C)CO)S(=O)(=O)c1cccc(Cl)c1	-10.2	-39.8	-3.8	0.0
O=S1(=O)N[C@H](Cc2ccccc2)COc2cccc(N3CCSCC3)c21	-35.5	-25.6	47.5	5.0
CO[C@@H]1CN(C)C(=O)c2cc(NC(=O)c3ccccc3F)ccc2OC[C@H](C)N(CC2CCOCC2)C[C@H]1C	-4.9	1.4	-1.0	-1.8
CN(C)C(=O)C[C@@H]1C[C@H]2c3cc(NC(=O)NC4CCCC4)ccc3O[C@H]2[C@H](CO)O1	-31.1	-33.8	-9.4	-0.6
C[C@H]1CN([C@@H](C)CO)C(=O)Cc2cc(NC(=O)NC3CCCCC3)ccc2O[C@@H]1CN(C)Cc1ccc(C(=O)O)cc1	4.7	16.1	-2.3	-1.0
CC1(C(=O)NS(=O)(=O)c2ccc(F)cc2F)CCN1C(=O)CC1CCCCC1 (configuration not stated)	17.1	2.1	2.5	-2.6
C[C@H]1CN([C@@H](C)CO)C(=O)c2c(c3ccccc3n2C)-c2ccccc2CO[C@H]1CN(C)C(=O)Nc1ccccc1C(F)(F)F	0.9	2.9	2.1	1.9
C[C@@H]1CN([C@@H](C)CO)S(=O)(=O)c2ccc(C#Cc3ccccn3)cc2O[C@@H]1CN(C)C(=O)C1CC1	-2.4	-7.1	0.9	-10.0
CCOC(=O)C1=CCN(S(=O)(=O)c2ccccc2F)C1c1ccc(Cl)c(Cl)c1 (configuration not stated)	9.4	-16.5	10.7	-2.9
Cc1ccccc1S(=O)(=O)N1C[C@@H]2[C@H](c3ccccc31)[C@@H](CO)N2C(=O)CC1CC1	-8.2	-12.2	0.1	0.9
COc1ccc(-c2ccc([C@H]3[C@H]4CN(C(=O)Cc5ccccn5)CC(=O)N4[C@H]3CO)cc2)cc1	-1.3	-10.3	1.8	1.4
C[C@H]1CN([C@@H](C)CO)C(=O)c2cc(NS(=O)(=O)c3ccccc3)ccc2O[C@H]1CN(C)C(=O)Nc1cccc2ccccc12	1.1	-3.7	1.4	6.2
COc1ccc(NC(=O)N(C)C[C@@H]2OCCCC[C@@H](C)Oc3ccc(NC(=O)NC(C)C)cc3C(=O)N([C@H](C)CO)C[C@H]2C)cc1	-3.4	-10.6	-3.2	-0.2
C[C@H](CO)N1C[C@H](C)[C@@H](CN(C)C(=O)CC2CC2)Oc2cc(-c3cncnc3)ccc2S1(=O)=O	1.3	3.0	-2.0	-9.9
C[C@H]1CN([C@@H](C)CO)C(=O)Cc2cc(NC(=O)CCCCCC(=O)Nc3ccccc3N)ccc2O[C@@H]1CN(C)Cc1ccc(-c2ccccc2)cc1	-1.7	-5.2	2.7	-1.0
O=C(C[C@@H]1C[C@H]2c3cc(NC(=O)Nc4ccc(C(F)(F)F)cc4)ccc3O[C@H]2[C@@H](CO)O1)NCc1ccc(Cl)cc1	-1.5	3.6	3.0	-0.9
O=C(Nc1ccccc1Cl)c1cc(C2CCCCN2C(=O)c2cccs2)on1 (configuration not stated)	-12.8	-19.9	-3.4	2.1
C[C@H](CO)N1C[C@H](C)[C@H](CN(C)CC2CC2)Oc2cc(-c3ccccc3)ccc2S1(=O)=O	-1.6	-6.5	1.1	0.4
C[C@H](CO)N1C[C@H](C)[C@H](CN(C)Cc2ccc(C(F)(F)F)cc2)Oc2ccc(NC(=O)CCCN(C)C)cc2C1=O	3.6	2.6	-3.3	0.9
C[C@@H]1CN([C@H](C)CO)C(=O)c2cccc(NC(=O)c3ccc(-c4nccs4)cc3)c2O[C@H]1CN(C)Cc1ccncc1	-7.3	-2.3	1.3	9.2
CNC(=O)C[C@@H]1CC[C@H]2[C@H](COc3ccc(NC(=O)Nc4ccc(F)c(F)c4)cc3C(=O)N2C)O1	-3.7	-4.6	1.6	1.3
C[C@@H](NC(=O)C[C@@H]1CC[C@@H]2[C@H](COc3ccc(NS(=O)(=O)c4ccc(Cl)cc4)cc3C(=O)N2C)O1)c1ccccc1	-1.0	-21.6	-3.2	1.5
NC(=O)c1cccc(-c2cccc3nccn23)c1	3.9	6.7	-1.2	-2.3
C[C@@H]1CN([C@H](C)CO)C(=O)c2cc(C#Cc3ccccn3)cnc2O[C@H]1CN(C)C(=O)c1ccccn1	9.6	9.1	-1.3	-9.5
CCCNC(=O)N(C)C[C@H]1Oc2cc(-c3ccc(C)cc3)ccc2S(=O)(=O)N([C@@H](C)CO)C[C@H]1C	-3.0	-22.1	0.0	-4.5
C[C@@H]1CN([C@@H](C)CO)C(=O)Cc2cc(NS(=O)(=O)c3cn(C)cn3)ccc2O[C@H]1CN(C)Cc1ccc(C(=O)O)cc1	1.2	1.5	-2.7	-4.5
C[C@H](CO)N1C[C@H](C)[C@H](CN(C)C(=O)Nc2ccccc2)Oc2ccc(NC(=O)Cc3ccccc3)cc2CC1=O	3.3	2.2	0.5	-1.8

Ordered by value in AF4-AF9 inh (falling): 3 of the compounds above.
SMILES	Ecoli rRNA inh	Ecoli rRNA inh OD600	Ecoli rRNA inh RFP	AF4-AF9 inh
C[C@H](CO)N1C[C@H](C)[C@H](CN(C)Cc2ccc(C(F)(F)F)cc2)Oc2ccc(NC(=O)CCCN(C)C)cc2C1=O	3.6	2.6	-3.3	0.9
O=C(C[C@@H]1C[C@H]2c3cc(NC(=O)Nc4ccc(C(F)(F)F)cc4)ccc3O[C@H]2[C@@H](CO)O1)NCc1ccc(Cl)cc1	-1.5	3.6	3.0	-0.9
NC(=O)c1cccc(-c2cccc3nccn23)c1	3.9	6.7	-1.2	-2.3

New compounds follow:
SMILES	Ecoli rRNA inh	Ecoli rRNA inh OD600	Ecoli rRNA inh RFP	AF4-AF9 inh
C[C@H]1CN([C@@H](C)CO)S(=O)(=O)c2ccc(-c3cccc(C#N)c3)cc2O[C@H]1CN(C)Cc1cccc(F)c1	0.9	2.0	7.1	-1.3
CO[C@H]1CN(C)C(=O)c2cc(NC(=O)c3ccccc3F)ccc2OC[C@H](C)NC[C@@H]1C	3.0	-5.4	-0.7	-0.7
CC(C)CC#Cc1cnc2c(c1)C(=O)N([C@H](C)CO)C[C@H](C)[C@@H](CN(C)C(=O)Cc1cccnc1)O2	2.9	-0.4	0.2	0.1
CNC(=O)C[C@H]1CC[C@H]2[C@H](COc3ccc(NC(=O)C4CCCCC4)cc3C(=O)N2C)O1	1.3	7.1	-1.5	-2.2
CCNC(=O)C[C@@H]1CC[C@H]2[C@H](COc3ccc(NC(=O)Cc4ccccc4)cc3C(=O)N2C)O1	1.7	-0.2	-1.8	-0.2
COCC(=O)Nc1ccc2c(c1)C(=O)N(C)C[C@@H](OC)[C@@H](C)CN(Cc1cncnc1)[C@H](C)CO2	2.1	2.2	0.8	-2.2
CC(=O)N(C)C[C@@H]1Oc2ncc(-c3ccc(C)cc3)cc2C(=O)N([C@@H](C)CO)C[C@@H]1C	2.0	6.4	-2.9	-2.6
O=C1CCc2cc(S(=O)(=O)Nc3cccc(Cl)c3)ccc2N1	-12.3	-34.0	-6.0	-4.3
O=C(Cc1cccnc1)N1CC(=O)N2[C@@H](CO)[C@H](c3ccc(C#CC4CCCCC4)cc3)[C@@H]2C1	0.5	1.2	-3.5	4.6
CN(C)Cc1cn(CC[C@H]2CC[C@@H](NS(=O)(=O)c3ccccc3)[C@H](CO)O2)nn1	-2.5	-1.9	4.0	-1.6
O=C(C1CC1)N1CCCCN2[C@@H](CO)[C@@H](c3ccc(C#CC4CCCC4)cc3)[C@@H]2C1	-58.9	-75.8	-12.3	8.6
Cc1cn(CC(=O)N[C@H](C)c2cccc3ccccc23)c(=O)[nH]c1=O	1.9	2.3	-1.0	-6.1
Cc1cc(C(=O)Nc2cccc3c2O[C@H](CN(C)Cc2ccc(C(F)(F)F)cc2)[C@H](C)CN([C@H](C)CO)C3=O)n(C)n1	-4.4	-0.5	0.8	-0.2
CN1C(=O)c2cc(NC(=O)c3cscn3)ccc2OC[C@H]2O[C@H](CC(=O)NCc3ccc(Cl)c(Cl)c3)CC[C@H]21	-10.9	-31.1	3.8	-0.8
Cc1noc(C)c1S(=O)(=O)N(C)C[C@H]1OCCCC[C@H](C)Oc2ccc(NC(=O)C3CCCCC3)cc2C(=O)N([C@@H](C)CO)C[C@H]1C	-1.8	-10.1	1.6	0.4
C[C@@H]1CN([C@H](C)CO)C(=O)c2cccc(NC(=O)c3cnccn3)c2O[C@@H]1CN(C)Cc1ccc(-c2ccccc2)cc1	-13.0	-13.1	9.5	6.9
C/C=C/c1ccc([C@H]2[C@@H](CO)N3CCCCN(C(=O)Nc4cc(F)ccc4F)C[C@@H]23)cc1	-2.4	-55.3	23.5	9.8
CS(=O)(=O)Nc1ccc2c(c1)[C@@H]1C[C@@H](CC(=O)NC3CCCC3)O[C@@H](CO)[C@@H]1O2	5.4	1.4	2.0	7.4
C[C@H](CO)N1C[C@H](C)[C@H](CN(C)C(=O)c2ccccc2F)Oc2ncc(-c3cncnc3)cc2C1=O	3.0	1.7	-3.3	-2.1
CCC(=O)N(C)C[C@@H]1Oc2cc(C#CC3CC3)ccc2S(=O)(=O)N([C@H](C)CO)C[C@@H]1C	2.1	12.3	1.5	-9.4
C[C@@H]1CN([C@@H](C)CO)C(=O)c2cccc(NC(=O)Nc3ccc(C(F)(F)F)cc3)c2O[C@H]1CN(C)Cc1ccncc1	0.6	-8.2	0.5	0.1
C[C@H](CO)N1C[C@H](C)[C@H](CN(C)S(C)(=O)=O)Oc2ccc(NS(=O)(=O)c3ccccc3)cc2CC1=O	-0.4	-2.6	-3.5	-2.2
O=C(C[C@H]1CC[C@H]2[C@@H](COC[C@@H](O)CN2Cc2ccc(Cl)cc2)O1)NCc1cccc(F)c1	-8.5	-43.0	8.4	1.4
C[C@H](CO)N1C[C@H](C)[C@H](CN(C)Cc2ccc(C(F)(F)F)cc2)OCCCC[C@H](C)Oc2ccc(NC(=O)c3ccccc3)cc2C1=O	-6.0	-7.0	2.1	-0.7
CCCNC(=O)N1C[C@H]2[C@@H](c3ccccc31)[C@H](CO)N2CC1CCCCC1	2.6	8.3	-1.8	0.5
C[C@H]1CCCCO[C@@H](CN(C)C(=O)C2CCCCC2)[C@@H](C)CN([C@@H](C)CO)C(=O)c2cc(NC(=O)Cc3ccccc3)ccc2O1	-2.4	-7.0	0.0	-1.7
CCCN1[C@H](C(=O)OC)[C@@H](CO)[C@@H]2Cn3c(ccc(-c4ccc(OC)cc4)c3=O)[C@@H]21	-7.9	-10.8	1.6	2.0
